Screening results deposited in PubChem by ICCB-Longwood Screening Facility, Harvard Medical School.
AID504770: growth inhibitors of E. coli YBA685 in a screen for V. cholerae RctB (chromosome II replication) inhibitors; E. coli YBA685 rctB-dependent plasmid, OD600 growth, 3 h; stronger effect = lower value; z-score (no concentration beside the values); 130,000 tested, 0.27% active; AID 504770;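 active = z-score under -2 on both plates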;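 also: wells of about 30 µL received 100 nL stock; score is relative to mean and SD of the test wells; the first replicate is given; strong numbers were not always called active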
CapD inh: blocks the Bacillus anthracis CapD enzyme. purified CapD enzyme, fluorescence intensity read-out; stronger effect = lower value; some hits fall short of the stated cut. z-score (no concentration beside the values). 140,000 tested, 0.23% active. AID 492967;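 active = z-score under -4 in either of two replicates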;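 also: stock transfer was 100 nL into about 40 µL; score is relative to mean and spread of the plate; one replicate is shown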
Active calls of the source: *; . = no result given; & = joins results of further samples. Outcome played no part in choosing rows; overall some 0.39% were active at least once.

Every second line gives: AID504770 | CapD inh
Cc1cc(C(=O)CSc2nccn2Cc2ccccc2)c(C)n1C1CCS(=O)(=O)C1 (stereo not given)
  -0.35 | .
C(=C\c1ccccc1)/CSc1nnc(-c2ccncc2)o1
  0.55 | -0.555
CC(=O)N1c2ccccc2CCc2ccc(N)cc21
  . | -0.92
Cc1cc(C(=O)CN2C(=O)NC3(CCCCC3C)C2=O)c(C)n1Cc1ccco1 (stereo not given)
  -0.3 | .
Cc1ccc(-n2cc(-c3ccccc3)c3c(NCc4ccccc4)ncnc32)cc1
  0.3 | -0.07
CCOC(=O)N1CCN(Cc2cc(=O)oc3ccc(OC)cc23)CC1
  0.1 | 0.265
COc1ccc(CCNC(=O)C(C)(C)C)cc1OC
  0.05 | 0.475
c1ccc(N=c2[n-][n+](-c3ccccc3)cn2-c2ccccc2)cc1
  1.75 | -1.55
CCOC(=O)c1oc2c(c1C)C(=O)CC(C)(C)C2
  0.4 | 1.46
Cc1[nH]n(-c2ccccc2)c(=O)c1/C=N/NC(C)(C)C
  -0.3 | .
CCNC(=O)N1CCC(c2nc(OC)cc(OC)n2)CC1
  . | 0.315
O=C(CSc1nnc2ccccn12)Nc1cc(C(=O)O)cc(C(=O)O)c1
  0.65 | .
Cc1c(C(=O)N2CCN(c3cccc(Cl)c3)CC2)sc2ncn(CC(=O)Nc3cccc(C(F)(F)F)c3)c(=O)c12
  . | 0.77
Cc1cc(Cl)ccc1OCCCC(=O)NNC(=O)c1ccc2nsnc2c1
  . | -0.985
Cc1csc2c(N3CCOCC3)ncnc12
  1.35 | -0.28
C=C(C)[C@@H]1CC[C@]2(CO)CC[C@]3(C)[C@H](CC[C@@H]4[C@@]5(C)CCC(O)C(C)(C)[C@@H]5CC[C@]43C)[C@@H]12 (stereo not given in full)
  . | -0.115
CCOc1ccc2c(c1)-c1c(ssc1=Nc1cccc(NC(C)=O)c1)C(C)(C)N2
  . | -1.79
CCCCN(Cc1ccco1)C(=O)Cn1nc(Cc2ccncc2)c2ccccc2c1=O
  0.25 | 0.67
Cc1ccc(N2C(=S)N=C(Nc3cccc(C(F)(F)F)c3)C23CCC(C(C)(C)C)CC3)cc1 (stereo not given)
  . | -0.23
COc1ccccc1CNC(=O)CCS(=O)(=O)c1ccc2c(c1)n(C)c(=O)c(=O)n2C
  -0.8 | 0.08

(continued)
Every second line gives: AID504770 | CapD inh
CCOC(=O)c1nccn1Cc1ccccc1Cl
  2.55 | -1.6
c1ccc(CSc2ncnc3c2nnn3Cc2ccccc2)cc1
  -0.65 | -0.22
COc1nc(Cl)nc(N2CCCCC2)n1
  -0.85 | 0.32
CC(Oc1cccc2ccccc12)C(=O)NN1S(=O)(=O)c2ccccc2S1(=O)=O (stereo not given)
  . | -0.905
Cc1c(Br)c([N+](=O)[O-])nn1CC(=O)Nc1c(C)n(C)n(-c2ccccc2)c1=O
  . | 0.15
O=C(/C=C/C(=O)N1CCOCC1)NC1CCCc2ccccc21 (stereo not given)
  0.1 | .
O=C(Cc1nc(=O)c2ccccc2s1)Nc1cccc(C(F)(F)F)c1
  . | 0.135
Cc1ccccc1Nc1nc2nonc2nc1N1CCOCC1
  . | -0.735
[O-][n+]1onc2c1CCc1c-2nn(-c2ccc(Cl)cc2Cl)[n+]1[O-]
  -0.25 | 0.6
CCOc1ccc(S(=O)(=O)N2CCCC(C(=O)NC)C2)cc1Cl (stereo not given)
  -0.35 | -0.335
CCOC(=O)C(C)(C)Sc1nnc(COc2ccccc2)n1CC
  1.45 | .
NC(=O)C1CCN(C(=O)c2ccc3c(c2)sc2nc(-c4ccccc4)cn23)CC1
  0.3 | 5.61
O=C(O)CN1C(=O)c2cc(Cl)c(Cl)cc2C1=O
  -0.2 | -0.615
O=C(NC1CC1)c1ccc(COc2ccc(F)cc2)o1
  -1.05 | 0.55
C=CCN1/C(=C\C=C\c2n(CC=C)c3cc(Cl)c(Cl)cc3[n+]2CCCCCCCC)N(CCCCCCCC)c2cc(Cl)c(Cl)cc21
  . | -0.495
Nc1ccc(C(=O)N2CCCC2)cc1CS(=O)(=O)c1ccc(Cl)cc1
  . | 0.565
COc1cc(/C=C2/N=C(c3ccc(Cl)cc3)OC2=O)cc(Br)c1OC(C)=O
  . | -0.215
C/C(=N\NC(N)=O)C1CC(Cc2ccccc2)C(=O)O1 (stereo not given)
  -0.5 | .
Nc1ncnc(Nc2cccc(C(F)(F)F)c2)n1
  . | 0.325
Cc1ccc(C(=O)N2CCc3ccccc3C2)cc1
  0.35 | 0.37

Later entries:
Every second line gives: AID504770 | CapD inh
CCOC(=O)N1CCC(Nc2ncnc3c2c(-c2ccccc2)cn3-c2cccc(C)c2)CC1
  . | 0.37
Cc1ccc2nc(N3CCC(C(=O)NCc4ccccc4)CC3)[nH]c2c1
  -1.4 | 0.15
CC(=O)Nc1ccc(S(=O)(=O)NC2=NCN(CCOC(=O)c3ccccc3)CN2)cc1
  1.55 | 0.21
CCNC(=O)C1CCCN1C(=O)OCc1ccccc1 (stereo not given)
  -0.45 | 0.305
CCOC(=O)c1sc(NC(=O)c2cccc(S(=O)(=O)N3CCCCCC3)c2)c(C(=O)OCC)c1C
  . | 2.13
CCOc1cc(/C=C2\SC(N)=NC2=O)ccc1OC(C)=O
  1.75 | .
O=C(O)CCC(=O)N1N=C(c2c(-c3ccccc3)c3cc(Cl)ccc3[nH]c2=O)CC1c1cccc([N+](=O)[O-])c1 (stereo not given)
  . | 5.28
CCCCCCCCCC(=O)Oc1ccc(-c2ncc(CCCCCCCC)cn2)cc1
  . | -0.62
O=C(CCCn1c(=O)c2cccn2c2ccccc21)N1CCN(Cc2ccc3c(c2)OCO3)CC1
  -0.75 | 0.375
CCN(CC)CCc1nc(-c2ccccc2)no1
  . | -0.165
COc1cccc(NC(=S)Nc2ccc(OC)c(OC)c2)c1
  . | 0.18
O=C(O)C1CC2CCC1C(O)C2 (stereo not given)
  . | -0.195
Cc1nnc2c(N3CCCC3)nc3ccc(C(=O)c4ccccc4)cc3n12
  1.9 | 0.07
CC(=Nc1ccc(Cl)cc1)c1ccccc1
  -0.35 | -0.125
CS(=O)(=O)c1ccccc1C(=O)Nc1ccc(C(F)(F)F)cc1
  -1.35 | .
CNS(=O)(=O)c1ccc(NC(=O)C2CC3C=CC2C3)cc1 (stereo not given)
  0.35 | 0.465
Oc1ccccc1CN1CCCCC1
  -0.7 | -0.13
Cc1c(C)c(C)c(CCN)c(C)c1C
  -0.9 | -0.82
COC(=O)c1ccccc1CS(C)(=O)=O
  -1.5 | -0.28
Cc1cccc(C[N+](C)(C)CCC(=O)c2ccccc2)c1
  -1.05 | 0.045

Following part:
Every second line gives: AID504770 | CapD inh
CCC(=O)N(Cc1cc2cccc3c2n(c1=O)CCC3)c1cccc(C(F)(F)F)c1
  . | -0.285
CCN(C(=S)NCCN1CCOCC1)c1cccc2ccccc12
  -0.3 | .
C[C@H](N=C1NS(=O)(=O)c2ccccc21)C(=O)OCc1cn2ccccc2n1
  -0.05 | .
O=S(=O)(c1ccc2ccccc2c1)N1C=CC(C(F)(F)F)=NCC1
  . | -0.225
Cc1ccc(-c2n[nH]c(Cc3ccccc3)n2)cc1
  0.7 | .
N#Cc1sc2nc(-c3ccncc3)ccc2c1N
  1 | -0.53
CCN(CC(=O)Nc1ccc(I)cc1)CC(=O)NC1CCS(=O)(=O)C1 (stereo not given)
  -0.05 | .
COc1cccc(C2c3c(oc4ccc(C)cc4c3=O)C(=O)N2CCCN(C)C)c1 (stereo not given)
  -0.05 | -0.145
CC(C)(C)c1ccc(Cn2cc(-c3nc4ccccc4o3)cn2)cc1
  . | -0.475
CN(C)c1ccc(/C(N)=N/O)cc1
  0 | .
O=C(O)c1ccc(S(=O)(=O)c2ccc(Cl)cc2)cc1
  0 | -0.125
COc1ccc(C2C3C(=O)N(c4ccccc4)C(=O)C3ON2c2ccccc2)cc1 (stereo not given)
  2.75 | .
CSc1nccc(-c2sc(SC)c(C#N)c2-c2ccccc2)n1
  0.1 | 13.6
Cc1cc(C)n(C(=O)c2cc(-c3ccc(C)o3)nc3ccccc23)n1
  2.05 | -0.45
COc1cc(C(=O)Nc2c3c(nn2-c2cccc(C)c2C)CS(=O)(=O)C3)cc(OC)c1OC
  . | 0.345
Oc1cccc(N=Cc2c[nH]c3ccccc23)c1
  -1.15 | .
COc1ccc2c(CC(=O)OC(C)C(N)=O)coc2c1 (stereo not given)
  -0.65 | .
CC1(C)CC(=O)C2=C(C1)Nc1ccccc1NC2/C=C/c1ccccc1 (stereo not given)
  1.5 | -1.65
COC(=O)c1csc2c(C(F)(F)F)cc(N3CCNCC3)nc12
  0.2 | 100
O=S(=O)(c1cc(Br)ccc1Br)N1CCCC(O)C1 (stereo not given)
  . | 0.305

Profiles, quoted from the list:
Entry for CCOc1ccc(S(=O)(=O)N2CCCC(C(=O)NC)C2)cc1Cl (stereo not given) → AID504770: -0.35; CapD inh: -0.335
Entry for CCC(=O)N(Cc1cc2cccc3c2n(c1=O)CCC3)c1cccc(C(F)(F)F)c1 → AID504770: .; CapD inh: -0.285
Entry for Cc1[nH]n(-c2ccccc2)c(=O)c1/C=N/NC(C)(C)C → AID504770: -0.3; CapD inh: .

Reprinted at random: two compounds from above.
Every second line gives: AID504770 | CapD inh
N#Cc1sc2nc(-c3ccncc3)ccc2c1N
  1 | -0.53
O=C(O)c1ccc(S(=O)(=O)c2ccc(Cl)cc2)cc1
  0 | -0.125

More structures
Every second line gives: AID504770 | CapD inh
O=C(Nc1ccc2c(c1)C(=O)OC2)c1ccno1
  -1.25 | -0.68
COc1ccc2ncc(S(=O)(=O)c3ccccc3)c(N3CCC(C(N)=O)CC3)c2c1
  -1.9 | -0.145
O=C(NCc1ccccc1)c1cccnc1N1CCOCC1
  0.5 | 0.08
O=C(CCC1CCCC1)NCc1ccco1
  -0.1 | .
O=C(Cn1c(SCc2ccccc2F)nc2ccncc21)NCC1CCCO1 (stereo not given)
  -1.3 | -0.49
Cc1cc(SCc2ncon2)c(C)cc1Cl
  -0.5 | -0.27
COc1ccc(Br)c(C(=O)Nc2c(F)cccc2F)c1
  -0.9 | -0.64
CC(C(=O)NCc1cccnc1)N1Cc2ccccc2C1=O (stereo not given)
  -0.9 | -0.245
CN1CCN(c2ccc(CNS(=O)(=O)c3ccc4c(c3)CCO4)cc2)CC1
  -0.35 | 1.01
O=c1cc(C(F)(F)F)[nH]n1-c1ccccc1
  1.8 | 0.125&-0.47
CC1Cc2ccccc2N1S(=O)(=O)c1ccccc1 (stereo not given)
  1.75 | -0.785
Cc1ccc(Cl)cc1NC(=O)CSC1=C(C#N)C(c2cccs2)C2=C(CCCC2=O)N1 (stereo not given)
  . | 4.92
O=c1[nH]c(=O)n(C2CCCO2)cc1F (stereo not given)
  -0.55 | 0.21
Cc1cc(NC(=O)Nc2cccc(C(F)(F)F)c2)n(C)n1
  . | 0.615
CCOC(=O)c1c(C=O)oc2c(C)cc(OC(=O)c3ccc(C(C)(C)C)cc3)c(Br)c12
  . | -0.33
CSc1scc(NC(=O)c2ccc(Cl)cc2)c1S(=O)(=O)C(C)C
  -0.6 | -1.18
CCC(=O)N1CCN(c2cc(Cl)ccc2C)CC1
  -0.6 | 0.09
CSc1cccc(-n2c(C)ccc2C)c1
  -0.35 | .
COC(=O)C1CC(=O)OC1c1ccccc1 (stereo not given)
  -0.9 | -0.015
Cc1ccc(C(=O)Nc2ccc(-c3nnc(-c4ccco4)o3)cc2)cc1C
  0.4 | 14.1

Following part.
Every second line gives: AID504770 | CapD inh
CC(C)(C)C(=O)N1CCn2c1nc1ccccc12
  -0.2 | -0.535
CCOc1ccc(C(=O)C(C)OC(=O)c2cccc(-n3cnnn3)c2)cc1 (stereo not given)
  -0.5 | .
Cc1ccc(S(=O)(=O)N2CCN(C(=O)c3ccc(OCc4c(C)noc4C)cc3)CC2)cc1
  -0.25 | .
COC(=O)c1cc(C#N)c(SCC(=O)C(C)(C)C)nc1C(OC)OC
  -0.85 | 0.6
CCn1c(SCC(=O)Nc2c(C)n(C)n(-c3ccccc3)c2=O)nc2c1c(=O)n(C)c(=O)n2C
  . | 0.185
O=C(/C=C/c1ccc2c(c1)OCO2)N1CCC(CN2C(=O)c3cccc4cccc(c34)C2=O)CC1
  . | 15.1
Nc1nc2c(s1)CCCC2
  1.3 | .
CN(C)C=Nc1c(C#N)c2n(c1C(=O)c1ccc(Br)cc1)CCC2
  0.85 | -0.375
COC(=O)C1=C(C)c2oc(N)nc2C1c1ccc(C(C)C)cc1 (stereo not given)
  0.9 | 23.2
Cc1ccc2c(c1)NC(=O)C(CC(=O)N(C)Cc1ccccc1)O2 (stereo not given)
  2.25 | -0.555
O=C(COC(=O)c1n[nH]c2ccccc12)Nc1ccc(N2CCOCC2)cc1
  0.05 | .
CCN1CCN(c2nc(-c3ccc(Cl)cc3)nc3ccccc23)CC1
  . | 0.515
O=C(NCCc1ccccc1)c1ccccc1NS(=O)(=O)N1CCCC1
  0.35 | 2.97
C/C(=C\C(=O)Nc1ccc(F)cc1)Nc1ccc(F)cc1
  -1.35 | -0.27
O=C(NCc1ccco1)c1ccc(-c2csnn2)cc1
  -0.3 | 1
COCCn1c(=O)[nH]c2cc(C(=O)NCc3ccccc3)ccc2c1=O
  -0.5 | 43.1
CN1C(c2ccccc2)CC(C)(O)CC1c1ccccc1 (stereo not given)
  0.6 | 0.53
N#CC1(C#N)[C@@H]2c3ccccc3C=CN2[C@@H](C(=O)c2cccs2)[C@@H]1c1ccsc1
  . | 0.905
N#CC1=C(N)SC(N)=C(C#N)C1c1cccc2ccccc12
  -0.5 | .
CCCn1nc(C(=O)OCc2cccc(S(=O)(=O)N(C)C)c2)c2ccccc2c1=O
  -0.45 | .
